High-throughput results deposited in PubChem BioAssay by National Center for Advancing Translational Sciences (NCATS).
StopGo RLuc: Primary qHTS Assay for Foot and Mouth Disease Virus Antivirals against NCGC Sytravon and CBC Compound Libraries: Renilla Luciferase Signal. actives 0.32% (n = 120,000). HEK cells with a luciferase reporter of 2A StopGo recoding. Potency, µM (titrated, usually from 57.5 µM), for the others: at the highest dose signal change, negative = less light. AID 1745857, 2022; active means well fitted falling curve with a large enough effect; inconclusive means small, poorly fitted or top-dose-only effect; inactive means no such curve, though single readings can be large or run the other way; also: nearly all actives have a fitted effect of over 55% in size; overnight with compound
StopGo FLuc: Primary qHTS Assay for Foot and Mouth Disease Virus Antivirals against NCGC Sytravon and CBC Compound Libraries: Firefly Luciferase Signal. HEK cells with a luciferase reporter of 2A StopGo recoding. Potency, µM (highest dose often 57.5 µM), for the others: at the highest dose signal change, negative = less light. actives 0.23% (n = 120,000). AID 1745856, 2022; active = well fitted falling curve with a large enough effect; inconclusive = small, poorly fitted or top-dose-only effect; inactive = no such curve, though single readings can be large or run the other way; also: nearly all actives have a fitted effect of over 60% in size; overnight with compound
Numbers without * were called inactive; u = inconclusive; & = joins results of further samples; [ ] = dose if it differs, or a comment. % is scaled to controls: 0 for no effect and ±100 for the full control effect; potency is read from the fitted curve at half-maximal effect.

SMILES	StopGo RLuc	StopGo FLuc
Cc1ccccc1NC(=O)c1cnc2ccccc2n1	8%	156%[activator]
Nc1nc(COC(=O)c2ccc(Cl)cc2)nc2ccccc12	-10%	26%
CC1(NC(=O)Cc2ccc3ccccc3c2)CCCC1	4%	0%
COc1ccc(N(Cc2cc3cc(OC)ccc3[nH]c2=O)C(=O)c2cccc(Cl)c2)cc1	-5%	-8%
O=C(NCC1CCN(Cc2ccc(F)cc2)CC1)c1cc2ccc3cccnc3c2[nH]1	-9%	-1%
CC(=O)c1cc2c(cc1NC(=O)c1cnn(-c3ccc(C)cc3)c1-n1cccc1)OCO2	-11%	-14%
O=C(/C=C/c1cn(CC(O)CN2CCCCCC2)c2ccccc12)c1ccccc1 (centres undefined)	-13%	6%
CC(C)C(=O)Nc1ccc(CNC(=O)c2cc[n+]([O-])cc2)cc1	-10%	13%
Cc1cc(C)n2nc(SCC(=O)Nc3ccc(O)cc3)nc2n1	-8%	-9%
O=C(CSCC(=O)N(Cc1cccs1)C1CC1)c1ccccc1	139%[activator]	81%[activator]
CCOC(=O)c1ccc(NC(=O)CSc2cn(CC(=O)N3CCCC3)c3ccccc23)cc1	-8%	u
Cc1ccc(/C=C(\C#N)c2nc3ccccc3c(=O)[nH]2)cc1	67%[activator]	4%
COc1cc(C(=O)OCc2ccc(C#N)cc2)cc(Cl)c1OC	7%	11%
O=C(/C=C/c1ccccc1[N+](=O)[O-])OCc1ccccc1F	3%	0%
CC(=O)c1sc(Nc2cccc(C)c2C)nc1C	2%	142%[activator]
CCOC(=O)COc1ccc2c(=O)c(Oc3ccccc3)c(C(F)(F)F)oc2c1	-5%	1%
N#CCCN1CCN(c2cc(C(=O)O)c3cc(NC(=O)C4CCCC4)ccc3n2)CC1	-5%	1%
CN(C)S(=O)(=O)c1cccc(C(=O)Nc2cccc3ncccc23)c1	20%	34%[activator]
Cn1c(=O)c2c(SCC(=O)NCc3ccco3)nc(-c3ccccc3F)nc2n(C)c1=O	-3%	-5%
Cc1ccc(SCc2cc(=O)[nH]c(Nc3nc(C)c4cccc(Cl)c4n3)n2)cc1	-12%	-12%
CCc1ccccc1NC(=O)Cn1nnc(C(=O)Nc2ccc(C)c(F)c2)c1N	-13%	-17%
Nc1ncc(S(=O)(=O)NCc2cccc(Cl)c2)cn1	29%	-3%
COc1ccccc1Nc1nn2c(=O)c3ccc(C(=O)N4CCCCC4)cc3nc2s1	-5%	-1%
COc1ccc(OC)c(C2NC(=O)NC(C)=C2C(=O)Nc2cc(C)cc(C)c2)c1 (centres undefined)	-4%	-15%
CCOC(=O)c1cc(C)n(CC2CCC(C(=O)Nc3cccc(C(C)=O)c3)CC2)c1C (centres undefined)	-7%	3%
CC(=O)Nc1ccc(NC(=O)CCc2ncc(-c3ccccc3Cl)o2)cc1	1%	15%
COC(=O)Cc1c(C)c2ccc(OCc3cccc(Cl)c3)c(C)c2oc1=O	16%	102%[activator]
O=C(Nc1ccc(OC(F)(F)F)cc1)C(Cc1ccccc1)NS(=O)(=O)c1cccc2nsnc12 (centres undefined)	92%[activator]	-16%
CCN(CC)CCNC(=O)c1sc2nc(C)cc(C)c2c1-n1cccc1	-11%	-15%
CCOC(=O)c1c(NC(=O)c2cc(CC)on2)sc(C)c1C	1%	6%
Cc1cccc(N2CCN(c3nc4ccccc4c4nc(-c5cccnc5)nn34)CC2)c1C	-12%	-16%
O=[N+]([O-])c1ccc(/C=N/Nc2ccc(S(=O)(=O)Nc3cccc(Cl)c3)cc2[N+](=O)[O-])cc1	178%[activator]	11%
Cc1ccc(-c2cnc(CCC(=O)N3CCCN(Cc4ccc(F)cc4)CC3)o2)cc1C	-13%	6%
Cc1ccc(CNC(=O)CSCc2nc(-c3cccc(C)c3)oc2C)cc1	18%	17%
CCOc1cc(/C=C2/NC(=O)NC2=O)ccc1OCc1ccc(Cl)cc1Cl	15%	16%
COc1ccc(-c2c3c(=O)n(C)c(=O)n(C)c3c3n2-c2ccccc2NC3c2ccc(C#N)cc2)cc1 (centres undefined)	-3%	-30%
O=C(/C=C/c1cccs1)OCC(=O)c1cc2ccccc2o1	2%	14%
COc1cccc(OC)c1C(=O)Nc1c(NC2CCCC2)c2ccccc2oc1=O	30%	38%[activator]
CCOc1ccc(N(C)S(=O)(=O)c2cc(-c3cc(C)no3)ccc2C(C)C)cc1	-18%	u
Cc1cc(C(=O)N2CCN(S(=O)(=O)c3ccccc3)CC2)c(C)n1Cc1ccccn1	0%	12%
CCCCc1nc(N2CCN(CCO)CC2)c(C#N)c2c1CCCC2	-20%	-8%
Cc1cccc(NC(=O)COC(=O)c2cc(C)nc3ccccc23)c1	-13%	-9%
Cc1ccc(NC(=O)c2ccc(CN3CC(=O)N4CCCCC4C3=O)cc2)cc1C (centres undefined)	-10%	4%
COc1ccc(NS(=O)(=O)c2cc(C(=O)N3CCCCC3)cs2)cc1	46%[activator]	0%
Cc1oc(-c2ccccc2)nc1CC(=O)Nc1ccc(S(=O)(=O)NC2CC2)cc1	15%	-1%
Fc1ccc(N/N=C/c2cccc(Br)c2)c(F)c1	23%	273%[activator]
CCc1cc(=O)[nH]c(SCc2nc(-c3ccccc3)no2)n1	-3%	0%
Cc1[nH]n(-c2nc3ccccc3[nH]2)c(=O)c1C1OC(=O)c2ccccc21 (centres undefined)	-30%	0%
CCCCN1C(=O)C(O)(CC(=O)c2ccc(CC)cc2)c2cc(Br)ccc21 (centres undefined)	1%	-21%
COC(=O)c1sc(NC(=O)COc2ccc(C)cc2C)nc1C	-2%	69%[activator]

Further entries follow.
SMILES	StopGo RLuc	StopGo FLuc
CC(=O)c1ccc(NC(=O)C2=CC(c3ccc(C)cc3)=NS(=O)(=O)N2C)cc1	-12%	-17%
FC(F)(F)c1cccc(CSc2nnc(SCc3cccc(C(F)(F)F)c3)s2)c1	-4%	18%
O=C(Cc1ccc(Cl)cc1)NC1CC(=O)N(c2ccc3c(c2)OCCO3)C1 (centres undefined)	8%	-9%
COc1cc(C(=O)NCCSc2c(-c3ccccc3)[nH]c3ccccc23)cc(OC)c1OC	-18%	u
NC(=O)C1CCN(C(=O)CCNc2ncnc3nc[nH]c23)CC1	7%	4%
CS(=O)(=O)Cc1ccc(C(=O)OCc2ccc(C#N)cc2F)cc1	-10%	-4%
N#Cc1cccc(NC(=O)COC(=O)c2ccccc2Sc2ccccc2C#N)c1	71%[activator]	63%[activator]
O=C(O)CCc1ccc(-c2ccc(Br)cc2)n1NC(=O)c1ccc(O)cc1	3%	3%
CC(C)n1c(SCC(=O)N2CCOCC2)nc2c1c(=O)n(C)c(=O)n2C	-8%	-2%
COc1cc(NC(=O)C(c2ccccc2)c2ccccc2)c(OC)cc1Cl	6%	-1%
N#CCc1ccccc1C(=O)OCC(=O)N1CCN(c2ccccc2)CC1	7%	-2%
N#Cc1nc(COc2ccc(F)cc2)oc1N1CCOCC1	-6%	33%[activator]
O=C(NC1CCCCCCC1)C1CCC(Cn2cnnn2)CC1 (centres undefined)	-2%	7%
COc1ccccc1CNc1nc2ccccc2nc1C(=O)OC(C)C	1%	61%[activator]
Cc1nc(CN2CCN(C(=O)NCc3ccco3)CC2)cs1	3%	u
CCCCC(=O)N(C)C(c1ccccc1)c1c[nH]c2ccccc12 (centres undefined)	35%[activator]	20%
CCNC(=O)CN1CCN(C(C(=O)O)c2c[nH]c3ccc(OCc4ccccc4)cc23)CC1 (centres undefined)	-7%	-7%
COc1ccccc1/C=C(\C#N)C(=O)Nc1cccc(C(F)(F)F)c1	-4%	16%
Cc1ccc(CNCCCn2ccnc2)cc1	-11%	-1%
CCC1CCc2c(sc(NC(=O)CC(C)(C)C)c2C#N)C1 (centres undefined)	-9%[1.06 µM]	28%

Whole records from above:
Entry for Cc1[nH]n(-c2nc3ccccc3[nH]2)c(=O)c1C1OC(=O)c2ccccc21 (centres undefined) : StopGo RLuc: -30%; StopGo FLuc: 0%
Entry for FC(F)(F)c1cccc(CSc2nnc(SCc3cccc(C(F)(F)F)c3)s2)c1 : StopGo RLuc: -4%; StopGo FLuc: 18%
Entry for O=C(Cc1ccc(Cl)cc1)NC1CC(=O)N(c2ccc3c(c2)OCCO3)C1 (centres undefined) : StopGo RLuc: 8%; StopGo FLuc: -9%

Additional records follow.
SMILES	StopGo RLuc	StopGo FLuc
COCc1ccc(CNC(=O)/C=C/c2ccccc2)cc1	15%	0%
CCCC(=O)Nc1ccc(CNCc2ccc(F)c(Br)c2)cc1	6%	7%
O=C(Cn1c(=O)nc(-c2ccccc2)c2cc(Cl)ccc21)N1CCN(c2ccc(F)cc2)CC1	0%	-2%
Cc1ccc(C)c(N2CCN(C(=O)C3CCCN(c4nnc(-n5cccc5)s4)C3)CC2)c1 (centres undefined)	-8%	-4%
O=C(CCn1ccc2cc(S(=O)(=O)N3CCCCCC3)ccc21)N1CCC2(CC1)OCCO2	123%[activator]	1%
Cc1cccc(N2C(=O)C(CC(=O)Nc3cccc(F)c3)N(CCc3ccncc3)C2=O)c1 (centres undefined)	14%	-8%
Cc1ccc(-c2noc(COC(=O)Cc3n[nH]c(=O)c4ccccc34)n2)cc1	-6%	28%
CN(Cc1cccc(F)c1)C(=O)CCNC(=O)Nc1ccccc1	67%[activator]	3%
CCOC(=O)c1cnc2c(C)cc(C)cc2c1Nc1ccc(OCc2ccccc2)cc1	-8%	1%
CN(C)S(=O)(=O)c1ccc2c(c1)cc(C(=O)NCCc1ccco1)n2C	-4%	3%
CCNc1c(NC(=O)c2ccccc2Br)c(=O)oc2ccccc12	18%	20%
CCCc1ccc(-c2cc(C(=O)O)c3ccccc3n2)cc1	u	-16%
Cc1ccc(OCCOc2ccc3ccc(=O)oc3c2)cc1C	-4%	1%
Cc1ccc2c(=O)c(C(=O)c3cccc(Cl)c3)cn(CC(=O)NC3CCCCC3)c2n1	-10%	-6%
O=C(CSc1nc2sc3c(c2c(=O)[nH]1)CCCC3)Nc1ccccc1F	-5%	-3%
CCCn1nc(C(=O)N2CCCc3ccccc32)c2ccccc2c1=O	7%	21%
CCN(c1ccc(-c2csc(-c3ccsc3)n2)cc1)S(C)(=O)=O	-12%	88%[activator]
COC(=O)CC1Oc2ccc(Cl)cc2-n2cc(-c3ccc(C)cc3)nc21 (centres undefined)	8%&-8%	14%&-3%
CC1CCN(c2nc3c(S(=O)(=O)c4ccc(Cl)cc4)nnn3c3ccsc23)CC1	3%	-2%
Cc1ncc(-c2ccc(S(=O)(=O)Nc3ccc(F)cc3)cc2)o1	90%[activator]	-24%
CC(=O)c1cccc(NC(=O)c2nc(-c3ccc(C)cc3)n3c2CCCCC3)c1	13%	1%
Cc1cc2cc(NS(=O)(=O)c3c(C)cccc3[N+](=O)[O-])ccc2[nH]1	109%[activator]	0%
CCCNC(=O)CSc1nnc(N2CCCCC2)n1-c1ccc(C)cc1	-2%	8%
Cc1ccc(NC(=O)c2c(NC(=O)c3ccco3)sc3c2CCC(C(C)(C)C)C3)c(C)c1 (centres undefined)	-11%	-2%
CCOC(=O)c1[nH]c(C)c(CCC(=O)Nc2cc(Cl)c(OC)cc2OC)c1C	-13%	0%
CCCCNc1nc2ccccc2nc1NS(=O)(=O)c1cc(Cl)ccc1Cl	65%[activator]	u
COc1cc2c(cc1OC)n(CC(=O)c1ccc(C)cc1)c(=O)n1nc(CCn3nc(C)cc3C)nc21	0%	-5%
Cc1cc(OC(=O)c2cccc(C)c2C)ccc1C(C)C	0%	0%
CCc1ccc(NC(=O)C(=O)NCCc2csc(-c3ccc(C(F)(F)F)cc3)n2)cc1	11%	20%
Cc1nn(Cc2noc(C(=O)NCc3cccc(F)c3)n2)c(C)c1Br	15%	-4%

The list goes on (2 carried over from the part before).
SMILES	StopGo RLuc	StopGo FLuc
CCc1ccc(NC(=O)C(=O)NCCc2csc(-c3ccc(C(F)(F)F)cc3)n2)cc1	11%	20%
Cc1nn(Cc2noc(C(=O)NCc3cccc(F)c3)n2)c(C)c1Br	15%	-4%
O=S(=O)(NC1CCSc2c(F)cccc21)c1cccc(F)c1 (centres undefined)	32%[activator]	-4%
Cc1oc2ncn(CC(C)C)c(=O)c2c1C(=O)N(Cc1ccccc1)C(C)C	9%	-4%
COc1ccc(S(=O)(=O)Nc2cccc(C)c2C)c2cccnc12	134%[activator]	-30%
CCc1ccc(NC(=O)CSc2nc3nccnc3c(=O)n2CCc2c[nH]c3ccccc23)cc1	-15%	-15%
CS(=O)(=O)Cc1ccc(C(=O)OCc2ccc(Cl)cc2)cc1	16%	26%
O=S(=O)(c1cccs1)N1CCCC(c2nc(-c3ccccc3)no2)C1 (centres undefined)	41%[activator]	26%
CC(C)Cc1nnc(NC(=O)C2(c3cccc(F)c3)CCC2)s1	-3%	0%
COC(=O)c1nc(NC(=O)c2ccccc2Cl)n[nH]1	-9%	-7%
CCOCCCNC(=O)CSCc1nc(-c2cccc(OC)c2)oc1C	-25%	3%
CC(NS(=O)(=O)Cc1ccccc1)c1cccs1 (centres undefined)	25%	24%
Cc1c(Cl)cccc1NC(=O)Cn1nc(C)c2ccccc2c1=O	-5%	-12%
CCC(C)c1ccc(C(N)C(C)C)cc1 (centres undefined)	-1%	6%

Pulled by structure from above:
SMILES	StopGo RLuc	StopGo FLuc
CCOCCCNC(=O)CSCc1nc(-c2cccc(OC)c2)oc1C	-25%	3%
CCC(C)c1ccc(C(N)C(C)C)cc1 (centres undefined)	-1%	6%
COc1ccc(S(=O)(=O)Nc2cccc(C)c2C)c2cccnc12	134%[activator]	-30%

A portion of the library; count on the stated rates, not on these rows.
